# Assay outcomes (PubChem)
# Polio RdRp inh: poliovirus RNA polymerase inhibition. 150,000 compounds, 0.66% hits. % elongation, % (compound at 16.7 µg/mL). P03300. AID 588519. poliovirus polymerase elongation, fluorescence polarization; active compounds read low; in the data active = % elongation below about 90%; also: some results filed as inactive read as strong as hits
# Target sequence (P03300 1749-2209 limits assumed): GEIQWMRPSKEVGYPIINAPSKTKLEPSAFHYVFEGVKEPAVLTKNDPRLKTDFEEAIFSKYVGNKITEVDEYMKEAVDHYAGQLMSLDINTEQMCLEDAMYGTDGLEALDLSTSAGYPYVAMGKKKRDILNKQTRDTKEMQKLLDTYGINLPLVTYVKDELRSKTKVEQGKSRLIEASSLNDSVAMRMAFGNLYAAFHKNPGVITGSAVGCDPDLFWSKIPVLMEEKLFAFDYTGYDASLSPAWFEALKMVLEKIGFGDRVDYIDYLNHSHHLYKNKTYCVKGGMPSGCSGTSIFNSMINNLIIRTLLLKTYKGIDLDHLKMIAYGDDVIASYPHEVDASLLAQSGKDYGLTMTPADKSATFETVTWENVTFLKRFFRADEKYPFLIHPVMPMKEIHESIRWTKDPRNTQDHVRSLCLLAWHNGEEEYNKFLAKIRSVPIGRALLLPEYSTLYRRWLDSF
# Polio RdRp inh intensity: second read-out of Polio RdRp inh, no call of its own (marks repeat the call); % elongation; measured here: total intensity read-out; formula for this scale not given here;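 total fluorescence in place of polarization; lower means less elongation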
# An asterisk follows results filed as active.
SMILES,Polio RdRp inh,Polio RdRp inh intensity
Cc1cccc(C(=O)Nc2ccccc2OCc2cc(=O)n3ccccc3n2)c1,107,113
CC(=O)c1cccc(NC(=O)CC(c2ccc(C)cc2)N2Cc3ccccc3C2=O)c1 (stereo not given),105,115
CCCN(CCC)CCCNC(=O)C1CCN(c2nc3ccc(CC)cc3s2)CC1,107,108
COc1cccc2sc(N(Cc3cccnc3)C(=O)C3COc4ccccc4O3)nc12 (stereo not given),103,97
COc1cc(CNC(=O)c2ccc3c(c2)N(C)C(=O)C2CCCCN32)cc(OC)c1OC (stereo not given),104,113
Cc1ccc(CCNC(=O)c2ccc3c(c2)N(Cc2cccc(C)c2)C(=O)c2ccccc2S3(=O)=O)cc1,104,107
COc1ccccc1-c1noc(-c2ccc(NCCc3ccccc3)c([N+](=O)[O-])c2)n1,110,113
Cc1cc(NCc2ccccc2Cl)n2cnnc2n1,109,110
Cc1cc(-c2ccc(C)c(S(=O)(=O)Nc3ccccc3C(F)(F)F)c2)on1,102,99
CCOc1ccc(S(=O)(=O)c2cn(Cc3ccccc3C)c3ccc(OC)cc3c2=O)cc1,102,104
Cc1ccc(Sc2c(C)nn(C(=O)COc3ccc(F)cc3)c2C)cc1,101,104
CC1CCN(S(=O)(=O)c2cc3c4c(c2)C(C)C(=O)N4CCC3)CC1 (stereo not given),111,108
COc1ccc(C)cc1NC(=O)c1cc(S(=O)(=O)N2CCC(C)CC2)ccc1F,107,113
O=C(CSc1nc(-c2cccs2)nc2cc(=O)[nH]n12)Nc1cccc(C(F)(F)F)c1,104,92
CCN(CC)c1ccc(NC(=O)c2sc3nc(-c4ccccc4)cn3c2C)cc1,106,104
Cc1cc(C)cc(NC(=O)C(Cc2ccccc2)NS(=O)(=O)c2ccc3c(c2)c(=O)n(C)c(=O)n3C)c1 (stereo not given),106,107
Cc1ccccc1CNC(=O)c1sc2ncnc(N(C)C3CCCCC3)c2c1C,105,109
COc1cc(NC(=O)Cn2cnc(S(=O)(=O)N3CCCC3)c2)cc(OC)c1OC,105,110
COc1ccc(NC(=O)Cn2c(=O)n(-c3cccc(C(F)(F)F)c3)c(=O)c3sccc32)cc1,107,114
CCOC(=O)N1CCc2c(sc(NCc3sccc3C)c2C(=O)Nc2cc(OC)ccc2OC)C1,101,105
COc1cccc(NC(=O)CC2Oc3ccccc3NC2=O)c1 (stereo not given),105,109
COc1ccc(S(=O)(=O)NCc2ccc(C(=O)NCc3ccccc3)cc2)cc1,112,111
CCOC(=O)c1c(-c2ccccc2)oc2ccc(OCc3cccc(Br)c3)cc12,110,110
CCOC(=O)c1cc(-c2ccccc2)n(-c2cccc(C(=O)N(C)c3ccc(C)cc3)c2)c1C,104,106
CCOC(=O)c1c(NC(=O)c2ccc(OC)cc2)sc2c1CCCCC2,104,105
Cc1ccc(NC(=O)CSc2nc3ccc(NC(=O)c4ccco4)cc3s2)cc1,112,115
Cc1ccc(-c2nc3cc(C(C)C)ccc3o2)cc1NC(=O)c1cc2ccccc2o1,103,103
CSc1cccc(Nc2cc(C(=O)NCCc3ccc(Cl)cc3)c3ccccc3n2)c1,104,106
Cc1c(C(=O)OC(C)C)sc(NC(=O)C2c3ccccc3Oc3ccccc32)c1C(=O)OC(C)C,106,105
CCSc1ncc(Cl)c(C(=O)Nc2nnc(CC)s2)n1,108,104
COC(=O)c1scc(-c2ccc(C)cc2)c1S(=O)(=O)Nc1c(C)cc(C)cc1C,109,108
COc1cccc(CC(=O)Nc2ccc(-c3nc4ccccc4s3)cc2)c1,99,106
COc1cccc(Nc2nc3ccc(C)cc3nc2-n2nc(C)cc2C)c1,111,115
COc1ccccc1N1CCN(C(=O)C(CCSC)NS(=O)(=O)c2ccc3c(c2)oc(=O)n3C)CC1 (stereo not given),104,105
Cc1ccc2c(CN3CCN(c4ccc(Cl)cc4)CC3)cc(=O)oc2c1,106,104
CC(=O)c1cccc(NC(=O)CN2C(=O)c3ccccc3Sc3ncccc32)c1,108,113
Cc1ccc(NC(=O)CCSc2nc(-c3ccc4c(c3)OCO4)cc(C(F)(F)F)n2)c(C)c1,107,111
Cc1cc(Nc2nc3ccccc3c3nnc(C)n23)ccc1Br,102,102
CC1CCN(c2nn3c(=O)c(C(=O)NCCCOC(C)C)cnc3s2)CC1,117,119
CCOC(=O)c1ccc(NC(=O)CS(=O)(=O)Cc2nc(-c3ccc(C)cc3)oc2C)cc1,102,107
COc1ccccc1C(=O)NCCn1cc(SCc2ccccc2Cl)c2ccccc21,107,105
Cc1ccc(N(Cc2cccs2)C(=O)c2ccccc2)cc1,103,102
COCCCNC(=O)c1ccc2nc(CCc3ccccc3)oc2c1,108,109
Cc1ccc(N(CC(=O)NCc2ccc(OC(C)C)cc2)S(=O)(=O)N(C)C)cc1,112,104
COc1cc2c(cc1OC)C(COc1ccc3c(C)cc(=O)oc3c1)N(C(=O)C(C)C)CC2 (stereo not given),110,108
Cc1nc(C)c(CCNS(=O)(=O)c2ccc(F)cc2)s1,100,95
CN(Cc1ccccc1)S(=O)(=O)c1nnc(NC(=O)c2ccccc2Cl)s1,114,102
COC(=O)Cc1c(C)c2ccc3c(c2oc1=O)CN(Cc1ccc(C)cc1)CO3,110,101
COc1ccccc1C(=O)Nc1c(C(=O)Nc2cc(Cl)ccc2C)sc2nc(C)cc(C)c12,98,104
Cc1ccc(OCCSc2nc3ccc(NC(=O)c4ccc(F)cc4)cc3s2)cc1,110,101
CCCCC(=O)OC1=C(C(C)=O)N(Cc2ccccc2)S(=O)(=O)c2ccccc21,105,108
CCn1c(=O)cc(SCC(=O)NCc2ccc(F)cc2Cl)c2ccccc21,109,112
Cc1ccc(NC(=O)Cn2cc(S(=O)(=O)Cc3ccccc3)c3ccccc32)cc1C,112,98
COc1ccc(N2CCN(C(=O)c3ccc4nc(N5CCC(C)CC5)sc4c3)CC2)cc1,108,111
Cc1nn2c(=O)cc(COC(=O)c3cccc(NC(=O)COc4ccccc4Cl)c3)nc2s1,105,111
Cc1ccccc1Nc1nc(-c2cccc(Cl)c2)c2c(n1)-c1ccccc1OC2,110,111
CCCN(CCC)C(=O)c1cc2c(=O)n3cccc(C)c3nc2n1C,107,99
COc1ccc(C)cc1NS(=O)(=O)c1c(C(=O)N2CCC(C)CC2)c(C)n(C)c1C,113,114
Cc1ccc2oc(-c3ccc(C)c(NC(=O)C(C)(C)Oc4ccc(Cl)cc4)c3)nc2c1,103,110
COc1ccc(-c2noc(CSc3nnc(C)n3-c3ccc(F)cc3)n2)cc1,107,111

# Overlap with the part before: two entries, followed by the next part.
SMILES,Polio RdRp inh,Polio RdRp inh intensity
Cc1ccc2oc(-c3ccc(C)c(NC(=O)C(C)(C)Oc4ccc(Cl)cc4)c3)nc2c1,103,110
COc1ccc(-c2noc(CSc3nnc(C)n3-c3ccc(F)cc3)n2)cc1,107,111
COc1ccc(S(=O)(=O)N(CC(=O)Nc2cccnc2)c2ccc(C)cc2)cc1OC,106,111
CC1Cc2cc(S(=O)(=O)CCC(=O)NCc3ccc(Cl)cc3)ccc2N1C(=O)C1CC1 (stereo not given),108,108
Cc1nnc(NC(=O)c2nc(S(=O)(=O)Cc3ccccc3)ncc2Cl)s1,98,97
O=C(Nc1ccc(Cl)cc1F)c1cnc2sc(N3CCOCC3)nn2c1=O,112,112
CCc1ccccc1N(CC)C(=O)Cn1nc(Cc2ccncc2)c2ccccc2c1=O,102,106
Cc1ccc(Cl)cc1N1CCN(C(=O)c2cccn3c(=O)c4cc(Cl)ccc4nc23)CC1,103,110
Cc1ccc(O)c(C2=Nc3ccccc3N=C(c3cccc(F)c3)C2)c1,96,99
O=c1c2oc3ccccc3c2n(Cc2ccc(F)cc2)c(=O)n1Cc1ccco1,109,113
CCCn1c2ccccc2c2cnn(CC(=O)NCCN(CC)CC)c(=O)c21,111,112
CCOc1ccc(CCNC(=O)c2cn(-c3cccc(OC)c3)c(=O)c3ccccc23)cc1,111,105
Cn1ncc(C(=O)N2CCN(c3ccc(F)cc3)CC2)c1C1CCN(C(=O)OC(C)(C)C)CC1,108,104
CCOC(=O)c1ccccc1NC(=O)c1cnn(-c2ccc(OC)cc2)c1C1CCN(C(=O)OC(C)(C)C)CC1,112,116
Cc1ccc(NC(=O)CN(C)S(=O)(=O)c2cccc3cccnc23)c(C)c1,105,110
CCN(C(=O)c1sc2cc(OC)ccc2c1Cl)c1ccccc1,105,108
CCOc1ccc(OCC)c(Nc2nc3ccccc3c3nnc(C)n23)c1,105,110
CC(Oc1ccccc1)C(=O)Nc1nc2ccc(S(N)(=O)=O)cc2s1 (stereo not given),109,113
CCc1nnc(SCC(=O)Nc2cc(OC)ccc2OC)nc1CC,112,112
Cc1cccc(-c2cc(NC(=O)COc3ccccc3F)n(-c3ccccc3)n2)c1,111,110
CCN(CC)C(=O)c1sc2c(c1C)c(=O)n(-c1ccc(C)c(C)c1)c(=O)n2Cc1cc(=O)n2ccccc2n1,106,109
CC(=O)N1CCc2c(sc3c2c(=O)n(-c2ccc(C)cc2)c(=O)n3Cc2ccccc2C)C1,105,109
Cc1coc2c(C)c3oc(=O)c(CCC(=O)NCCc4ccccc4)c(C)c3cc12,109,105
CCOc1ccc(Cn2c(CNS(=O)(=O)c3ccc([N+](=O)[O-])cc3)nc3cccnc32)cc1,107,109
COCCn1c(=NC(=O)c2ccc3c(c2)OCCO3)sc2cc(C(=O)OC)ccc21,104,107
O=C(NCCn1cc(SCc2ccc(F)cc2)c2ccccc21)c1cccs1,101,107
CCN1CCN(CCCNC(=O)c2cc3c(s2)-c2ccccc2OC3)CC1,98,99
CC(C)Oc1ccc(C(=O)N2CCC(c3nc4ccccc4s3)CC2)cc1,112,101
Cc1ccc(Cc2nc3ccccc3nc2SCC(=O)N2CCCc3ccccc32)cc1,108,113
COC(=O)c1cc2occc2n1CC(=O)Nc1ccc(N(C)C)cc1,108,109
Cc1ccc(-n2c(=O)c3c4c(sc3n(CC(=O)Nc3cccc(Cl)c3)c2=O)CCCCC4)cc1C,104,108
CCOC(=O)c1cc(S(=O)(=O)NCc2ccc(C)cc2)[nH]n1,110,105
CC(C)c1ccc(NC(=O)CSC2=Nc3ccccc3C3=NC(CC(=O)NCc4ccco4)C(=O)N23)cc1 (stereo not given),99,101
CCOC(=O)c1ccc(NC(=O)CC2C(=O)N(c3ccccc3)C(=O)N2Cc2cccs2)cc1 (stereo not given),109,109
O=C(NCCc1ccc(Cl)cc1)c1ccc(CS(=O)(=O)c2ccc(Cl)cc2)o1,107,114
CCOc1ccc(N2CC(c3nc4ccccc4n3CCOc3ccccc3OC)CC2=O)cc1 (stereo not given),106,109
O=C(COc1ccccc1Cl)Nc1nnc(S(=O)(=O)N2CCCC2)s1,111,113
COC(=O)c1c(-c2ccc(Cl)cc2)noc1N1CCN(c2ccc(C)cc2C)CC1,104,106
COc1ccc(CCNC(=O)c2sc3nc4n(c(=O)c3c2C)CCCC4)cc1OC,109,110
COc1ccc(OCC(=O)NC2CC(=O)N(c3cccc(OC)c3)C2)cc1 (stereo not given),99,108
COc1ccc(NS(=O)(=O)c2ccc3c(c2)n(C)c(=O)c(=O)n3C)cc1Cl,99,99
CCOC(=O)c1c(C)oc2nc(C)nc(NCc3ccccc3Cl)c12,109,105
COC(=O)c1sc2cccc(F)c2c1S(=O)(=O)NCc1ccccc1Cl,108,116
CCOc1ccc(NS(=O)(=O)c2ccc3c(c2)CCN3C(C)=O)cc1,110,101
O=C(NCCc1ccc(Cl)cc1)c1ccc(CS(=O)Cc2cccc(Cl)c2)o1 (stereo not given),102,105
Cc1cc(C)cc(NC(=O)c2sc3nc4n(c(=O)c3c2C)N=C(c2ccccc2)CS4)c1,105,100
CCOc1ccc(NC(=O)Cn2c(=O)nc(-c3ccccc3)c3ccccc32)cc1,108,99
Cc1cc(C)c(NC(=O)Cn2c(=O)n(-c3ccc(CC(=O)NCC4CCCO4)cc3)c(=O)c3ccccc32)c(C)c1 (stereo not given),107,108

# Of the compounds above, ten contain a furan ring, fused or not.
SMILES,Polio RdRp inh,Polio RdRp inh intensity
CCOC(=O)c1c(-c2ccccc2)oc2ccc(OCc3cccc(Br)c3)cc12,110,110
Cc1ccc(NC(=O)CSc2nc3ccc(NC(=O)c4ccco4)cc3s2)cc1,112,115
Cc1ccc(-c2nc3cc(C(C)C)ccc3o2)cc1NC(=O)c1cc2ccccc2o1,103,103
O=c1c2oc3ccccc3c2n(Cc2ccc(F)cc2)c(=O)n1Cc1ccco1,109,113
Cc1coc2c(C)c3oc(=O)c(CCC(=O)NCCc4ccccc4)c(C)c3cc12,109,105
COC(=O)c1cc2occc2n1CC(=O)Nc1ccc(N(C)C)cc1,108,109
CC(C)c1ccc(NC(=O)CSC2=Nc3ccccc3C3=NC(CC(=O)NCc4ccco4)C(=O)N23)cc1 (stereo not given),99,101
O=C(NCCc1ccc(Cl)cc1)c1ccc(CS(=O)(=O)c2ccc(Cl)cc2)o1,107,114
CCOC(=O)c1c(C)oc2nc(C)nc(NCc3ccccc3Cl)c12,109,105
O=C(NCCc1ccc(Cl)cc1)c1ccc(CS(=O)Cc2cccc(Cl)c2)o1 (stereo not given),102,105

# Some of the compounds tested. The share of hits here may be higher or lower than overall.
